UCH37 DUB inh – human UCH37 deubiquitinating enzyme inhibition; inhibition, % (test concentration not listed); 330,000 compounds, 0.33% hits; purified proteasome/UCH37, Ub-AMC cleavage fluorescence; Q9Y5K5;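 active means mean of two replicates above 20%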;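 further: 0% = compound-free wells with enzyme and 100% = wells lacking proteasome; stock transfer was 100 nL into about 20 µL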
Target sequence (Q9Y5K5 whole entry, looked up): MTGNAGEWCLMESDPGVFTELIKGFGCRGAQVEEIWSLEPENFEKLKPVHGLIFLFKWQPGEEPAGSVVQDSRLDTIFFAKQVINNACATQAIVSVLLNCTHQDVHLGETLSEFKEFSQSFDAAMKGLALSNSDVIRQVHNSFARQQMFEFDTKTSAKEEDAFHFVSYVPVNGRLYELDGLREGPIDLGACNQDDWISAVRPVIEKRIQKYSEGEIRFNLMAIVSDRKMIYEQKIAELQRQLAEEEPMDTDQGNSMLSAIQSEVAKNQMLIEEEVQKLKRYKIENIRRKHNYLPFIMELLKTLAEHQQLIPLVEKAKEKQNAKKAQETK
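Reagent: Ub-AMC substrate; assay system: Proteasome-associated human UCH37 deubiquitinase; controls: no-proteasome and no-compound wells; read-out: % inhibition of Ub-AMC cleavage fluorescence; timing: 30 min preincubation with enzyme, 25 min cleavage at room temperature; signal: AMC fluorescence from Ub-AMC cleavage, excitation 355 nm, emission 460 nm; buffer or medium: Tris-HCl pH 7.4 plus ovalbumin, ATP-MgCl2, DTT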
Bfl-1 A1 inh – inhibitors of the anti-apoptotic protein A1, read as caspase activation; MEF A1-2A-BIM cells, Caspase-Glo 3/7 luminescence, 3 h; percent of clofoctol response, vehicle zero; caspase activation, % (concentration not given with the values); 330,000 compounds, 0.066% hits; AID 2462;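 active means over half of replicate activation scores above 10%, or exactly half above 10 with the replicate mean above 10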;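 further: wells of about 30 µL received 50 nL stock; many hits fall short of the cut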
Beta apoptosis – beta cell apoptosis inhibition | INS-1E cytokine-induced death, ATP luminescence, 48 h; percent of positive-control rescue, neutral wells zero | protection from apoptosis, % (concentration not given with the values) | 300,000 compounds, 0.8% hits | AID 435005;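 active means all replicates at 75% or more, or half of them and the mean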;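 further: 0% = cytokine-treated negative control wells and 100% = positive control rescue; higher means more ATP so stronger rescue from cytokine killing; wells of about 40 µL received 100 nL stock; the first replicate is given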
T cruzi inh – blocks replication of Trypanosoma cruzi; T. cruzi beta-gal in NIH3T3, luminescence, 90 h; inhibition, % (no concentration beside the values); 300,000 compounds, 1.4% hits; AID 1885;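 active means mean inhibition across valid replicates above about 55%, limit read from the data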;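 further: signal also drops with host cell toxicity which is not excluded here; 0% = plate median of DMSO wells and 100% = zero luminescence signal; higher percent means less beta-gal luminescence so fewer parasites; stock transfer was 50 nL into about 50 µL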
Ecoli rRNA inh – inhibitors of bacterial rRNA selective over humanized ribosomes; GFP signal change (wild-type ribosome), % (concentration not given with the values); E. coli WT GFP vs humanized-ribosome RFP mutants, fluorescence, 24 h; hits give low values; DMSO median 0, no signal -100; 350,000 compounds, 1.6% hits;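 active means significant combined selectivity score with lowered wild-type GFP, culture density cut under 30%, mutant RFP and density less affected; inactive means any of these conditions unmet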; further: one replicate is shown; some compounds called inactive have numbers as strong as hits
FGF22 binding – binders of recombinant human FGF22 by thermal shift; SYPRO orange fluorescence; percent of sucrose octasulfate shift, DMSO zero; calls only at 9.99 µM; 340,000 compounds, 1.5% hits; Q9HCT0;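 active means melting point raised past a set limit in the mean and every replicate; three in four hits are not shown here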
Target sequence (Q9HCT0 whole entry, looked up): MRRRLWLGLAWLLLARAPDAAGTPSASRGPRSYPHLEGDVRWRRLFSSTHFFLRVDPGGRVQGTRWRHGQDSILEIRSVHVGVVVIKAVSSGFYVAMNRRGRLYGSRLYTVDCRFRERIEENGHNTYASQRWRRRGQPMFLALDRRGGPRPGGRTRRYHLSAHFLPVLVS
AF4-AF9 inh – MLL-AF4/AF9 protein interaction inhibition. P42568. AlphaScreen, biotin-AF4 peptide binding to FLAG-AF9. inhibition, % at 10 µM. 350,000 compounds, 0.47% hits;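 active means every replicate reaching a set inhibition limit, whatever the replicate mean, cut at about 25% in these data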;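 further: 0% = plate neutral control median and 100% = total signal loss; the record names both 10 and 1 µM as test concentration; the first replicate is given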
Target sequence (P42568 whole entry, looked up): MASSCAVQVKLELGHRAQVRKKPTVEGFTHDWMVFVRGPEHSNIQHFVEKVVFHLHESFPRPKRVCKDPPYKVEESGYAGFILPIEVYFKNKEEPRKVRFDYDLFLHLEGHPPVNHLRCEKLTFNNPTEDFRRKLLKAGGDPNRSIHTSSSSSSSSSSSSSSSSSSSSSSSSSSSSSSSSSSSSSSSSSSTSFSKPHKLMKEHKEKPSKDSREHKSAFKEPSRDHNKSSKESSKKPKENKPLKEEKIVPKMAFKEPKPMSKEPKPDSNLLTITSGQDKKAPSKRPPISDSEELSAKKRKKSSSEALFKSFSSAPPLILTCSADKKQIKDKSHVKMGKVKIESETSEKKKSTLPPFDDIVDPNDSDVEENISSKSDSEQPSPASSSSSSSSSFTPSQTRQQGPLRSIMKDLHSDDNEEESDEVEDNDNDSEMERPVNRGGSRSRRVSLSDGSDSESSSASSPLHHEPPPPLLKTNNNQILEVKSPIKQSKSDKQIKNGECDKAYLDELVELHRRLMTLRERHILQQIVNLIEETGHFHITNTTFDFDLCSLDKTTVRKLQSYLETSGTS
E coli growth – blocks Escherichia coli growth | OD600, 23 h; hits give low values | OD600 absorbance (test concentration not listed) | 330,000 compounds, 0.21% hits;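 active means OD600 absorbance below the run mean of sample wells minus 3.6 SD, in any replicate, cut at about 0.56 in these data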;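 further: stock transfer was 300 nL into about 60 µL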
Ecoli rRNA inh OD600 – second read-out of Ecoli rRNA inh, no call of its own (marks repeat the call); OD600 change, %; measured here: OD600 growth;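 optical density of the mix in the first replicate; 0 = DMSO median and -100 = no signal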
Ecoli rRNA inh RFP – recorded beside Ecoli rRNA inh, whose call it bears; RFP signal change, %; measured here: RFP humanized mutant strains;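 first replicate; 0 = DMSO median and -100 = no signal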
Numbers without * were called inactive; i = inactive; . = not tested or not shown; & = joins results of further samples.

| SMILES | UCH37 DUB inh | Bfl-1 A1 inh | Beta apoptosis | T cruzi inh | Ecoli rRNA inh | Ecoli rRNA inh OD600 | Ecoli rRNA inh RFP | FGF22 binding | AF4-AF9 inh | E coli growth |
| --- | --- | --- | --- | --- | --- | --- | --- | --- | --- | --- |
| CCC(C)OC1OC(CO)C(O)C(O)C1NC(C)=O (centres undefined) | 4.4 | 0.1 | -8 | -7 | 11 | 4 | -0.9 | i | -4.1 | 0.7 |
| Cc1ccc(C(=O)Oc2ccccc2N2C(=O)C3CCC(C)CC3C2=O)cc1 (centres undefined) | -0.5 | 0.0 | -10 | -8 | . | . | . | . | . | 0.71 |
| Cc1ccc(C)c(N(CC(N)=O)S(C)(=O)=O)c1 | 3.1 | 0.1 | -3 | -12 | . | . | . | . | . | 0.78 |
| Cc1nnc(SCC(=O)Nc2c(Cl)cccc2Cl)[nH]c1=O | 4.7 | 0.8 | -4 | -1 | 8 | 8 | -0.1 | i | -13 | 0.77 |
| O=C1CC2(CCCC2)C(=O)N1c1ccc(S(=O)(=O)NCC2CC2)cc1Cl | 2.8 | 1.9 | -4 | 3 | -5 | -17 | -4.7 | i | . | 0.68 |
| Cc1cccc2c(=O)oc(-c3ccccc3Cl)nc12 | -0.3 | 0.4 | -8 | 26 | 18 | 10 | 1.7 | i | -0.3 | 0.66 |
| c1ccc(-c2noc(C34CC5CC(CC(C5)C3)C4)n2)nc1 | 4.2 | 0.0 | -5 | -11 | . | . | . | . | . | 0.75 |
| CCOC(=O)NC(NC(=S)Nc1ccc(OCC)cc1)C(Cl)(Cl)Cl (centres undefined) | -1.5 | 0.0 | -5 | 4 | . | . | . | . | . | 0.7 |
| CN(C)c1ccc(C(=O)/C=C/c2cccnc2)cc1 | 9.3 | 1.5 | -8 | -12 | 2 | -8 | -3.1 | i | -2.4 | 0.64 |
| Cc1c(C(=O)NNC(=O)c2csc(N3CCOCC3)n2)cccc1[N+](=O)[O-] | 4.7 | 2.0 | 6 | . | -6 | -5 | -1.2 | i | -1.2 | 0.68 |
| CC(C)(C)NC(=O)[C@@H]1C[C@@H]2CCCC[C@@H]2CN1C[C@@H](O)[C@H](Cc1ccccc1)NC(=O)[C@H](CC(N)=O)NC(=O)c1ccc2ccccc2n1 | 3.4&-0.3 | 1.2&0.3 | -5&7 | 24&36 | -36 | -46 | 8.4 | i | 1.4&0.7 | . |
| O=C(CC(=O)c1ccccc1)CC(O)(C=Cc1ccccc1)c1ccccc1 (centres undefined) | -0.4 | . | . | . | -12 | -47 | 9.2 | i | 1.7 | 0.69 |
| CCCC(=O)c1c(NC(C)C)cc(C)oc1=O | 1.4 | -0.6 | -9 | -3 | . | . | . | . | . | 0.65 |
| COc1ccc(Cl)cc1NS(=O)(=O)c1cc(Cl)ccc1OC | 0.3 | 0.5 | -8 | 24 | 6 | 16 | 16 | . | . | 0.72 |
| Cc1c2n(c3ccccc13)CC/C2=N\O | . | 1.2 | -2 | -26 | -12 | -1 | -1.9 | i | . | . |
| O=c1[nH]c2ccc(S(=O)(=O)Nc3ccccc3O)cc2[nH]1 | 1.7 | 0.3 | . | -17 | 3 | 7 | -0.6 | i | -2.1 | 0.67 |
| O=C(NC1CCCCC1)C(c1cccnc1)N(C(=O)c1csnn1)c1ccc(F)cc1 (centres undefined) | 1.4 | -0.2 | -1 | 7 | 7 | 6 | -1.4 | i | 1.1 | 0.64 |
| N#C/C(=C/c1ccncc1)c1nc2ccccc2s1 | -3.8 | -0.4 | -5 | 20 | 8 | 7 | 0.2 | i | -2.2 | 0.7 |
| COc1ccc(S(=O)(=O)N(Cc2ccc(OC)c(OC)c2)Cc2ccco2)cc1 | 1.4 | 0.9 | 9 | 32 | . | . | . | . | . | 0.77 |
| COc1ccc(-c2sc3ccccc3c2C#Cc2cncn2C)cc1 | -19 | -0.1 | 7 | . | 7 | -9 | -3.3 | i | 5.1 | 0.7 |
| CC1Cc2ccccc2N1S(=O)(=O)c1cccc(C(=O)NCc2ccncc2)c1 (centres undefined) | 3.7 | -1.3 | 7 | . | -14 | -46 | -14 | i | 2.5 | 0.72 |
| Cc1cc2ncn(C3CC(=O)N(C)C3=O)c2cc1C (centres undefined) | 1.2 | -0.1 | -3 | -12 | . | . | . | . | . | 0.72 |
| CC1(C)CC(=O)c2cnc(NCC3CCCO3)nc2C1 (centres undefined) | 7.7 | 0.1 | 1 | -7 | . | . | . | . | . | 0.79 |
| COc1ccc(S(=O)(=O)N2CCN(Cc3cccc(OC)c3OC)CC2)cc1 | 1.4 | -0.4 | . | 6 | 3 | 0 | 0.4 | i | 8.0 | 0.66 |
| O=C(COC(=O)c1ccc(NS(=O)(=O)c2cccs2)cc1O)NCc1ccccc1 | 5.0 | 1.7 | -3 | 0 | -33 | 51 | -10 | i | -1.7 | 0.71 |
| Cc1ccc(-c2csc(Nc3ccc(C(=O)O)cc3)[n+]2Cc2ccccc2)cc1 | -1.1 | -0.1 | 9 | 39 | 12 | 1 | -2.8 | i | -1.2 | 0.74 |
| COc1ccc(NC(=O)O/N=C/c2ccccc2Cl)cc1 | . | -2.2 | 1 | -11 | -13* | 9.2* | 5.3* | i | -4.6 | . |
| O=C(NC1CCCc2ccccc21)C1CCN(C(=O)c2sccc2-n2cccc2)CC1 (centres undefined) | 2.3 | 0.2 | 2 | 2 | 0 | -17 | 0.2 | i | 2.9 | 0.76 |
| Cc1nnsc1C(=O)Nc1ccc(Cl)cc1 | 1.8 | -2.1 | -2 | 3 | . | . | . | . | . | 0.7 |
| CCOP(=O)(c1ccccc1)C(O)c1ccc(Br)cc1 (centres undefined) | 2.1 | 0.5 | -1 | -14 | -2 | 10 | -3.9 | i | -4.0 | 0.69 |

Grouped by structure, the compounds so far with an NH in an aromatic ring
| SMILES | UCH37 DUB inh | Bfl-1 A1 inh | Beta apoptosis | T cruzi inh | Ecoli rRNA inh | Ecoli rRNA inh OD600 | Ecoli rRNA inh RFP | FGF22 binding | AF4-AF9 inh | E coli growth |
| --- | --- | --- | --- | --- | --- | --- | --- | --- | --- | --- |
| Cc1nnc(SCC(=O)Nc2c(Cl)cccc2Cl)[nH]c1=O | 4.7 | 0.8 | -4 | -1 | 8 | 8 | -0.1 | i | -13 | 0.77 |
| O=c1[nH]c2ccc(S(=O)(=O)Nc3ccccc3O)cc2[nH]1 | 1.7 | 0.3 | . | -17 | 3 | 7 | -0.6 | i | -2.1 | 0.67 |

(continued)
| SMILES | UCH37 DUB inh | Bfl-1 A1 inh | Beta apoptosis | T cruzi inh | Ecoli rRNA inh | Ecoli rRNA inh OD600 | Ecoli rRNA inh RFP | FGF22 binding | AF4-AF9 inh | E coli growth |
| --- | --- | --- | --- | --- | --- | --- | --- | --- | --- | --- |
| CC1CCN(C(=O)c2cc3ccccc3cc2O)CC1 | -1.0 | -0.3 | 2 | -14 | 12 | -11 | 4.9 | i | -0.2 | 0.66 |
| O=C(Nc1sc2c(c1C(=O)O)CCC2)c1ccccc1F | 8.0 | -7.7 | -2 | -3 | -3 | -10 | 2.8 | i | -1.8 | 0.66 |
| CCOC(=O)CCc1c(C)c2ccc(OCC)c(C)c2oc1=O | -62 | 0.1 | -17 | -10 | . | . | . | . | . | 0.73 |
| CC(C)/C=C/C(=O)N1CCC(N2CCC(C(=O)N3CCOCC3)CC2)CC1 | 3.4 | -0.8 | -5 | 10 | 15 | 10 | -6.7 | . | 0.7 | 0.69 |
| COC(=O)CCSc1cc([N+](=O)[O-])cc2c1c(C1OCCS1)nn2-c1ccccc1 (centres undefined) | -0.7 | 0.1 | -6 | 22 | . | . | . | . | . | 0.76 |
| O=C(NCc1ccncc1)C1CCCN(S(=O)(=O)Cc2ccccc2)C1 (centres undefined) | 2.4 | 1.7 | -4 | -4 | . | . | . | . | . | 0.75 |
| CC(C)N(Cc1nc(-c2ccccc2)no1)C(=O)c1ccc(Br)o1 | 0.7 | -0.4 | -6 | 6 | . | . | . | . | . | 0.72 |
| Cc1nn2c(N3CCOCC3)cc(C(C)(C)C)nc2c1-c1ccccc1 | -412 | -1.0 | -7 | 2 | 14 | 24 | 1.0 | i | 0.2 | 0.68 |
| N#Cc1ccc(OCC(=O)N/N=C2/CC(c3ccccc3)Oc3ccccc32)cc1 (centres undefined) | . | -0.3 | 6 | -6 | . | . | . | i | -8.2 | . |
| CCOc1cc(C(=O)NC(C)C2CC3CCC2C3)cc(OCC)c1OCC (centres undefined) | 5.2 | 0.1 | . | 13 | -2 | 8 | -1.0 | i | 0.4 | 0.62 |
| Cc1occc1C(=O)N/N=C/c1ccccc1[N+](=O)[O-] | . | -6.8 | 7 | 2 | . | . | . | i | 1.0 | . |
| CCOC(=O)N1CCN(c2c(N3CC=C(c4ccccc4)CC3)c(=O)c2=O)CC1 | 6.0 | 0.9 | 0 | 5 | 5 | 9 | 3.3 | i | 1.2 | 0.69 |
| Cc1ccc2c(C)c(C(=O)N(Cc3ccccc3)C3CCS(=O)(=O)C3)oc2c1 (centres undefined) | 3.4 | -0.4 | -2 | 28 | -4 | -27 | 5.8 | i | -1.8 | 0.66 |
| CC(C)(C)OC(=O)N1O[C@H]2C[C@@H]1[C@@H]1[C@@H]2N=NN1C12CC3CC(CC(C3)C1)C2 | 2.6 | . | . | . | -2 | -5 | 13 | i | 3.1 | 0.72 |
| Cc1ccc(-c2nc3cc(Br)cnc3nc2-c2ccc(C)cc2)cc1 | -1.8 | 0.2 | 13 | 58* | -7 | -6 | -3.9 | i | 13 | 0.74 |
| CCn1c(-c2cccnc2Cl)nc2ccccc21 | 1.0 | -0.4 | -2 | -14 | . | . | . | . | . | 0.68 |
| NC(=O)C1CCN(CCC(=O)Nc2ccc(F)c(F)c2)CC1 | 3.4 | -1.3 | 0 | -11 | -9 | 0 | 1.7 | . | 1.3 | 0.63 |
| CN(C)S(=O)(=O)c1ccc(N2CCOCC2)c(C(=O)O)c1 | 1.4 | -0.3 | -4 | -22 | . | . | . | . | . | 0.71 |
| Nc1cc2ccccc2oc1=O | 1.5 | -0.3 | -3 | -13 | . | . | . | . | . | 0.73 |
| Cc1ccccc1NC1=NC(=S)N(c2ccccc2)C12CCCCC2 | 0.3 | -0.2 | -2 | -19 | . | . | . | i | 7.1 | 0.66 |
| O=C(NNS(=O)(=O)c1ccc(Cl)cc1)c1cnn(-c2ccccc2)c1-n1cccc1 | 1.8 | -0.3 | -5 | -13 | . | . | . | . | . | 0.67 |
| C/C(=N\Nc1ncc(Cl)cc1Cl)c1ccc2c(c1)OCO2 | . | -2.5 | 1 | -11 | 6 | 7 | 0.6 | i | 1.7 | . |
| Cc1nc(N2CCOCC2)c(C#N)c(C)c1Br | -6.4 | -0.2 | -3 | 6 | . | . | . | . | . | 0.69 |
| N=c1n(Cc2ccccc2)c2ccccc2n1CC(O)c1ccco1 (centres undefined) | -1.1 | 0.6 | -2 | -33 | . | . | . | . | . | 0.7 |
| Cc1cc(C(=O)CCC(=O)NC(C)c2ccc(S(N)(=O)=O)cc2)c(C)s1 (centres undefined) | -0.3 | 0.1 | 4 | 1 | 10 | 6 | -0.3 | i | 6.3 | 0.62 |
| Cc1ccc(S(=O)(=O)Nc2ccc3c(c2)OCCO3)c(C)c1NS(C)(=O)=O | -0.7 | 0.9 | 0 | 1 | 3 | 4 | 0.4 | i | -1.0 | 0.71 |

This is a subset. The share of hits here may be higher or lower than overall.
